Screening data as filed in PubChem BioAssay.
D2 ag: activates the human D2 dopamine receptor. DiscoveRx PathHunter D2 beta-arrestin, luminescence, 90 min; 100% = 57 uM dopamine signal. activation, % (test concentration not listed). actives 0.084% (n = 360,000). P14416. AID 624465; in the data active = activation above about 40%; inconclusive = about 15% to 40%; inactive = below about 15%; also: compound concentration not given in the record; the text of the record calls up to 30% inactive
Target sequence (P14416 whole entry, looked up): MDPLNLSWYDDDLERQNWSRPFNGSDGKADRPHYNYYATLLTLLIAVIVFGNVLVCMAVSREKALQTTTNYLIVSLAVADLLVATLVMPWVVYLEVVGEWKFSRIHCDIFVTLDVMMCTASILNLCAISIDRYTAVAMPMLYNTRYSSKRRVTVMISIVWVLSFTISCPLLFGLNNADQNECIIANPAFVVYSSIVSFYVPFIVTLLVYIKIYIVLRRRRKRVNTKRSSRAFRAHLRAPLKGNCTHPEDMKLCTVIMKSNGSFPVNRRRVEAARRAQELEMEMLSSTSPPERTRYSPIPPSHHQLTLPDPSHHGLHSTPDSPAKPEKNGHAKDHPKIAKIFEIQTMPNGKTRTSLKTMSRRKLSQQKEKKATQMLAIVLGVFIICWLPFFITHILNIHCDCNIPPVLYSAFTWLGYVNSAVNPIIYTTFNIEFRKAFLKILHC
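DiscoveRx PathHunter D2 beta-arrestin cells (2,100/well) attached overnight, then compound-stimulated 90 min at 37 C in HBSS/10 mM HEPES/0.1% Tween-20 buffer; beta-galactosidase complementation read by luminescence after 1 h at ambient temperature. Dopamine 57 uM final (EC100) as control.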
Menin-MLL FL inh: menin-MLL binding inhibition, fluorescein peptide; FP activity change, % at 61.4 µM; Fluorescence polarization, fluorescein-MLL peptide displacement from menin; 290,000 tested, under 10 active; AID 1766; inconclusive = falling polarisation curve, or a change in total fluorescence; inactive = total fluorescence flat and polarisation flat or rising; no compound was filed as active; the % refers to the polarisation; negative = inhibition;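 also: % of control where 0% means no effect; inhibitors lower the polarisation; unlabelled MLL peptide was the positive control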
ClpP mod: qHTS Assay for Activators of ClpP; Potency, µM (doses to about 57.5 µM), for the others: at the top dose activity change, negative = active; purified B. subtilis ClpP, FRET peptide cleavage, 20 min; actives 1.9% (n = 340,000); ATP-dependent Clp protease proteolytic subunit (Bacillus subtilis (strain 168)), P80244; active = well fitted falling curve with a large enough effect; inconclusive = small, poorly fitted or top-dose-only effect; inactive = no such curve, though single readings can be large or run the other way; also: potency is read from the fitted curve at half-maximal effect; the source files actives as falling curves though it sought activators and does not explain the sign; nearly all actives have a fitted effect of over 65% in size; many hits overshoot -100%
Target sequence (P80244 whole entry, looked up): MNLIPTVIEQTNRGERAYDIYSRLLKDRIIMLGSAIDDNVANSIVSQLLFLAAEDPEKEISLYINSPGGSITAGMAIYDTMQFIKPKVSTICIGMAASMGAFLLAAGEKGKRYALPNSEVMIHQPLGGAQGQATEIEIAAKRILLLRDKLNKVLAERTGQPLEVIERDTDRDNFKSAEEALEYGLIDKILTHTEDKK
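Buffer: 100 mM Tris/HCl pH8, 100 mM KCl, 0.05% low protease BSA, 2.5% glycerol, 0.01% Tween-20. ClpP 10 microg/mL final; 20 min RT; delta FRET normalized to ADEP and DMSO controls.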
gsp ag: activates gsp, the McCune-Albright syndrome mutation. gsp mutant cells, cAMP HTRF, 30 min; control for the full effect not named in the record. Potency, µM (titrated, usually from 76.9 µM), for the others: at the highest dose activation (cAMP increase), actives largely listed as activators. actives 0.13% (n = 340,000). AID 624287; active = well fitted activation curve with a large enough effect; inconclusive = small, poorly fitted or top-dose-only effect, or another doubt; inactive = no such curve, though single readings can be large or run the other way; cell line not stated here;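 also: phosphodiesterase inhibitor Ro 20-1724 added with compounds to block cAMP breakdown; potency is read from the fitted curve at half-maximal effect; nearly all actives have a fitted effect of over 60% in size; about a fifth of the inactives were tested at one dose only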
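Cells in DMEM/10% FBS with G418 were pretreated with compounds in DMSO plus […] (300 uM stock) for 30 min at 37C. cAMP was measured by HTRF (cAMP-d2 plus anti-cAMP antibody-K) after 30 min at room temperature.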
Sfp PPTase inh: blocks B. subtilis Sfp PPTase activity; AID 1490; Biochemical Sfp PPTase activity, qHTS; Q9F4F7; Potency, µM, inactives show max response, negative = inhibition, most hits filed as inhibitors; actives 3.5% (n = 310,000); active = well fitted inhibition curve with a large enough effect; inconclusive = small, poorly fitted or top-dose-only effect, or another doubt; inactive = no such curve, though single readings can be large or run the other way;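 also: the enzyme is Sfp with the accession as filed and its product quenches rhodamine fluorescence; potency is read from the fitted curve at half-maximal effect; 0% = enzyme reaction without inhibitor and -100% = no enzyme wells; top concentration of the series not given in the record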
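Sfp 15 nM + cpd, 15 min RT; start w/ rhodamine-CoA 5 uM, BHQ-2-YbbR 12.5 uM (final); 50 mM Hepes pH 7.6, 10 mM MgCl2, 0.01% NP-40, 0.01% BSA; read 525/598 nm at 0 and 30 min.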
gsp antag: gsp mutant antagonism | gsp-mutant cells, cAMP HTRF, 30 min; control for the full effect not named in the record | Potency, µM (top dose mostly 76.9 µM), for inactives: top-dose activity change, negative = inhibition, actives largely listed as inhibitors | actives 0.4% (n = 340,000) | AID 624288; active = falling curve of any shape with a large fitted effect; inconclusive = falling curve, mostly with a smaller effect; inactive = flat or rising curve; cell line not stated here;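 also: intracellular cAMP measured with PDE inhibitor Ro 20-1724 present during compound exposure; potency is read from the fitted curve at half-maximal effect; % is scaled to controls: 0 for no effect and ±100 for the full control effect; nearly all actives have a fitted effect of over 65% in size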
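G418-selected cells were plated in DMEM/10% FBS for 16-24 h at 37C, then treated with compounds plus the PDE inhibitor […] (300 uM solution added) for 30 min at 37C. Intracellular cAMP was measured by HTRF after 30 min lysis at room temperature.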
PINK1 modulator: changes PINK1 expression; actives 0.2% (n = 410,000); PINK1 immunofluorescence, high-content cytometry, 24 h; Potency, µM (highest dose often 76.6 µM), without a hit: at the top dose activation (PINK1 increase), actives largely listed as activators; active = well fitted activation curve with a large enough effect; inconclusive = small, poorly fitted or top-dose-only effect; inactive = flat fitted curve, though single readings scatter; cell line not stated here;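 also: potency is read from the fitted curve at half-maximal effect; % of control where 0% means no effect; nearly all actives have a fitted effect of over 65% in size; a mitochondrial uncoupler was the plate control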
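Measures PINK1 amount and localization on or inside mitochondria by immunofluorescence. Stable cells get compounds at 5 concentrations for 24 hours before fixation and staining; CCCP controls included.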
The depositor's hits bear a star; ? = inconclusive; · = no result given; [ ] = remark or other dose. The order is random; 5.1% or so of the library scored in one or more.

1: CCOC(=O)C1=CCN(S(=O)(=O)c2cccc(Cl)c2)C1c1ccc(Br)cc1 (stereo unspecified)
2: OC(c1ccc(F)c(F)c1)c1ncc(-c2ccc(F)cc2)[nH]1 (stereo unspecified)
3: CC12CN(C(=O)c3ccco3)CC(c3ccccc3)(CN(C(=O)c3ccco3)C1)C2=O
4: CC(C)c1nc(CNC(=O)CC2C(=O)NCCN2Cc2ccc(F)cc2Cl)cs1 (stereo unspecified)
5: CCc1nc2cc(CC(=O)O)ccc2o1
6: CC(C)(C)OC(=O)C[C@H]1C/C=C\C[C@@H](CC(=O)NCCO)C(=O)N[C@H](C(C)(C)C)COC1=O
7: CC1(c2ccccc2)NC(=O)N(CC(=O)N2CCOCC2)C1=O (stereo unspecified)
8: CN1/C(=C\C=C2/C(=O)Oc3ccccc3C2=O)C(C)(C)c2ccccc21

assay / compound	1	2	3	4	5	6	7	8
D2 ag	-1.7	-4.5	-0.7	-6.6	0.9	-1.1	-3.4	-2.3
Menin-MLL FL inh	·	·	-1.7	·	2.1	·	-0.3	·
ClpP mod	-2.1%	-0.2%	-1.1%	-3.5%	-2.3%	-2.2%	-0.7%	1.8%
gsp ag	·	·	-34%	-27%	-38%[inhibitor]	·	-7%	17%
Sfp PPTase inh	·	·	14%	-2%	6%	·	12%	18%
gsp antag	·	·	1%	-2%	2%	11%	11%	?
PINK1 modulator	1.0%	0.3%	3.1%	2.9%	-3.9%	0.4%	0.1%[38.3 µM]	13µM*

9: CCn1c(SCC(=O)N2CCN(c3ccc(F)cc3)CC2)nnc1-c1ccncc1
10: O=C(COc1cc(Cl)ccc1Cl)Nc1nnc(CC(=O)N2CCOCC2)s1
11: COc1ccc(CCNc2ncccc2C#N)cc1OC
12: COC(=O)CSc1nc2c(c(=O)n(C)c(=O)n2C)n1CCCc1ccccc1
13: CNC(=S)N/N=C/c1cn(CCOc2ccc(OC)cc2)c2ccccc12
14: CC(Oc1cccnc1[N+](=O)[O-])C(=O)N1CCc2ccccc21 (stereo unspecified)
15: COc1ccc(S(=O)(=O)Nc2cc(OC)c(NC(=O)c3ccco3)cc2OC)cc1
16: COc1ccc(OC)c(S(=O)(=O)n2ccnc2C)c1

assay / compound	9	10	11	12	13	14	15	16
D2 ag	1.2	-2.1	1.5	0.2	2.9	-4.6	1.2	-0.4
Menin-MLL FL inh	0.0	0.1	-3.8	0.6	7.6	·	5.7	1.4
ClpP mod	-2.9%	-2.1%	·	-19%	-1.3%	-2.1%	-2.0%	-0.6%
gsp ag	-15%	-6%	9%	21%	-24%	0%[15.4 µM]	?	-28%
Sfp PPTase inh	5%	11%	0%	5%	8%	·	2%	14%
gsp antag	0%	-5%	3%	6%	15%	4%	5%	18%
PINK1 modulator	2.3%[38.3 µM]	15%	2.3%	-0.4%	-1.9%	1.0%	5.0%[38.3 µM]	-0.6%

17: CC(NC(=O)CN(C)S(=O)(=O)c1ccc(Br)s1)c1ccccc1 (stereo unspecified)
18: O=C(CN1C(=O)c2ccccc2S1(=O)=O)N1CCN(c2ccccc2F)CC1
19: COC(=O)C1CCN(C(=O)NC2CCCCC2)CC1
20: CCCSc1nnc(N2C(=O)C(O)=C(C(=O)c3ccco3)C2c2ccccc2F)s1 (stereo unspecified)
21: Cc1ccc(NC(=O)[C@H](NC(=O)[C@@H]2Cc3ccccc3CN2)c2ccccc2)c(C)c1
22: O=C(Nc1ccc2c(c1)OCCO2)c1c(F)cccc1F
23: FC(F)(F)c1cc(-c2cccs2)nc2nc(N3CCOCC3)sc12
24: Cc1ccc(-n2c(Cc3cccc4ccccc34)n[nH]c2=S)c(C)c1

assay / compound	17	18	19	20	21	22	23	24
D2 ag	0.0	-3.3	-1.7	5.3	-4.7	-2.0	0.7	-9.2
Menin-MLL FL inh	1.0	0.5	0.9	?	·	-0.9	-1.2	-6.8
ClpP mod	·	0.2%	-0.5%	-8.4%	-1.1%	0.3%	·	-1.7%
gsp ag	?	-37%[inhibitor]	-80%[inhibitor]	2%	2%	?	4%[15.4 µM]	0%
Sfp PPTase inh	20%	-8%	17%	40µM*	-9%	7%	-14%	-1%
gsp antag	-5%	-3%	9%	-30%	4%	4%	·	-4%
PINK1 modulator	2.7%	-0.2%	0.0%[38.3 µM]	1.8%	6.6%	-2.0%[38.3 µM]	2.4%	3.7%

25: Cc1nc(SCC(=O)Nc2sccc2C(N)=O)c2c(C)c(C)sc2n1
26: CCOc1ccc(NC(=O)C2CCCN(S(C)(=O)=O)C2)cc1 (stereo unspecified)
27: COC(=O)c1ccc(N2C(=O)CC(SCC(=O)Nc3ccc(OC)cc3)C2=O)cc1 (stereo unspecified)
28: COc1ccc(CCNC(=O)[C@H](C)N2C(=O)N3CCc4c([nH]c5ccccc45)[C@@]3(C)C2=O)cc1OC
29: CCCCOC(=O)C1=C(C)Nc2ncnn2C1c1cccc(OC)c1OC (stereo unspecified)
30: COc1ccc(CC(NC(C)=O)C(=O)NC2CCN(C(=O)c3cccc(Cl)c3)CC2)cc1OC (stereo unspecified)
31: CCN(C(=O)CSc1nnc(-c2cccs2)n1CC)C1CCS(=O)(=O)C1 (stereo unspecified)
32: CC(=O)n1nc(-c2cccnc2)nc1N

assay / compound	25	26	27	28	29	30	31	32
D2 ag	-3.0	2.4	-2.5	2.9	-2.6	-1.1	-0.5	-0.4
Menin-MLL FL inh	·	0.4	3.0	4.0	2.1	-2.9	2.0	6.0
ClpP mod	-3.2%	·	-1.1%	-4.4%	-3.9%	·	·	1.6%
gsp ag	-35%	?	?	·	2%	26%	-6%[15.4 µM]	-6%
Sfp PPTase inh	·	7%	-19%	11%	14%	12%	19%	4%
gsp antag	·	8%	5%	-9%	-30%	9%	10%	7%
PINK1 modulator	-0.5%	-1.1%	6.8%	0.9%	-2.5%	-0.5%	1.2%	12%[38.3 µM]

33: CCN(CC)S(=O)(=O)N1CCC(C(=O)NC2CCCc3ccccc32)CC1 (stereo unspecified)
34: O=C1N[C@H](Cc2ccccc2)CO1
35: CCn1c(=O)c([N+](=O)[O-])c(NCc2ccc3c(c2)OCO3)c2ccccc21
36: Cc1cc(=O)n2[nH]c(C(F)(F)F)c(-c3ccccc3)c2n1
37: COc1ccc(-n2c(=O)cc(N3CCN(c4ccccc4F)CC3)[nH]c2=O)cc1
38: CCn1c(SCC(=O)N2CCCCC2C)nc2ccsc2c1=O (stereo unspecified)
39: CCC(CC)C(=O)Nc1cccc(/C(C)=N/NC(=O)c2ccccc2Cl)c1
40: Cc1cc(C)c2cc(C(=O)N(C)C3CCN(C)CC3)[nH]c2c1

assay / compound	33	34	35	36	37	38	39	40
D2 ag	-2.4	-2.9	-2.7	-0.1	-1.1	2.4	-1.1	-0.1
Menin-MLL FL inh	1.1	·	1.6	-5.9	-2.2	-1.5	4.8	-2.0
ClpP mod	0.0%	1.0%	-1.2%	3.9%	0.5%	-3.0%	0.1%	·
gsp ag	2%	·	8%	-2%	-32%[inhibitor]	34%	?	24%
Sfp PPTase inh	2%	·	11%	18%	-1%	11%	3%	1%
gsp antag	6%	8%	-23%	-4%	-11%	-8%	1%	4%
PINK1 modulator	2.8%[38.3 µM]	2.0%	-0.7%	0.4%	2.4%[38.3 µM]	4.9%[38.3 µM]	-1.7%	3.6%

41: O=C(Nc1ccc(NC(=O)c2ccco2)nc1)c1ccccn1
42: CCOc1ccc(CNc2nc3ccccc3n2CCN2CCOCC2)cc1
43: COc1ccc(Nc2nc(N)nc(CSc3n[nH]c(-c4ccccc4)n3)n2)cc1
44: CNC(=O)C(=O)NCCN1CCN(C(=O)c2ccc([N+](=O)[O-])cc2)CC1
45: CCCOc1ccc(N2CC(C(=O)NC3=NCCS3)CC2=O)cc1 (stereo unspecified)
46: O=c1c2cnn(-c3ccccc3)c2ncn1Cc1ccco1
47: CCC(=O)Nc1ccc(S(=O)(=O)Nc2ncccn2)cc1
48: CCn1nc(C)cc1C(=O)Sc1ccc(Cl)cc1Cl
49: COc1ccc(C(=O)Nc2ccccc2)cc1NC(=O)c1ccc([N+](=O)[O-])cc1
50: CCCCCCCn1c2c(c(=N)c3ccccc31)CCC2

assay / compound	41	42	43	44	45	46	47	48	49	50
D2 ag	1.4	-3.3	-0.7	-4.5	1.1	-0.8	-4.2	-0.8	3.3	1.8
Menin-MLL FL inh	0.6	-2.4	0.3	0.5	-8.5	1.4	0.0	-0.1	-1.2	1.5
ClpP mod	-6.2%	-0.5%	-1.7%	·	·	-18%	-1.2%	·	·	3.8%
gsp ag	?	?	25%	0%[15.4 µM]	23%	?	-33%[inhibitor]	-3%[15.4 µM]	-28%	?
Sfp PPTase inh	-19%	16%	10%	-10%	8%	1%	-2%	-15%	6%	50µM*
gsp antag	14%	-6%	12%	2%	4%	9%[15.4 µM]	2%	-12%	?	7%
PINK1 modulator	-0.9%	-0.1%	0.1%	5.3%	-0.7%	-0.1%	-1.8%	2.4%	0.2%	20µM*

Reprinted at random: 4 compounds from above
45: CCCOc1ccc(N2CC(C(=O)NC3=NCCS3)CC2=O)cc1 (stereo unspecified)
46: O=c1c2cnn(-c3ccccc3)c2ncn1Cc1ccco1
43: COc1ccc(Nc2nc(N)nc(CSc3n[nH]c(-c4ccccc4)n3)n2)cc1
49: COc1ccc(C(=O)Nc2ccccc2)cc1NC(=O)c1ccc([N+](=O)[O-])cc1

assay / compound	45	46	43	49
D2 ag	1.1	-0.8	-0.7	3.3
Menin-MLL FL inh	-8.5	1.4	0.3	-1.2
ClpP mod	·	-18%	-1.7%	·
gsp ag	23%	?	25%	-28%
Sfp PPTase inh	8%	1%	10%	6%
gsp antag	4%	9%[15.4 µM]	12%	?
PINK1 modulator	-0.7%	-0.1%	0.1%	0.2%
